DUX4 txn inh – DUX4-mediated transcription inhibition. 293T-iDUX4 ZSCAN4-Gaussia luciferase reporter, 24 h; active compounds read low. activity change, negative = inhibition, % (test concentration not listed). 37,000 tested, 0.8% active. AID 1224904;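 active = -10% or lower and over 25 points stronger than a control reporter; inconclusive = -10% or lower with a smaller gap; inactive = above -10%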;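 also: 0% = median of neutral control wells and -100% = median of positive control wells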
DUX4 txn inh difference – second read-out of DUX4 txn inh, no call of its own (marks repeat the call); Gaussia minus Italica difference, %; measured here: selective DUX4 reporter inhibition;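 worked out from the two reporters; negative = selective loss of the DUX4 reporter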
DUX4 txn inh control – also measured in DUX4 txn inh; calls as there; activity change, negative = inhibition, %; measured here: Italica tet-on control reporter;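 0 = neutral control and -100 = positive control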
Starred values were filed as active, the others as inactive; ? = inconclusive; nt = not tested or not shown. Only part of the results is shown; count on the stated rates, not on these rows.

| molecule | DUX4 txn inh difference | DUX4 txn inh control | DUX4 txn inh |
| --- | --- | --- | --- |
| Cc1ccccc1S(=O)(=O)N1[C@H](CO)[C@@H](c2ccc(-c3ccccc3)cc2)[C@@H]1C#N | -4 | 3.5 | -1 |
| CC(C)C(=O)Nc1ccc2c(c1)C(=O)N(C)[C@H]1CC[C@@H](CC(=O)NCCCN(C)C)O[C@@H]1CO2 | 1 | 0.1 | 1 |
| CC(=O)N1[C@H](CO)[C@H](c2ccccc2)C12CN(C(=O)Cc1ccccc1)C2 | -4 | -0.2 | -4 |
| C/C=C/c1ccc([C@H]2[C@@H](C#N)N(c3nc(CC)cs3)[C@H]2CO)cc1 | -2 | 4.6 | 2 |
| COc1cccc(-c2ccc([C@@H]3[C@H]4CN(S(=O)(=O)c5cn(C)cn5)CCCCN4[C@H]3CO)cc2)c1 | nt | nt | ? |
| CCC(=O)N1CC(=O)N2[C@H](C1)[C@@H](c1ccc(C#CCC(C)C)cc1)[C@@H]2CO | -3 | 1.1 | -2 |
| CO[C@H]1CN(C)C(=O)c2cc(NC(=O)C3CCCCC3)ccc2OC[C@@H](C)N(C)C[C@@H]1C | -12 | 5.6 | -6 |
| Cc1ccccc1S(=O)(=O)N1CC(=O)N2[C@H](CO)[C@H](c3ccc(C#CCN(C)C)cc3)[C@H]2C1 | -5 | 6.2 | 1 |
| COc1ccc(C#Cc2ccc([C@@H]3[C@@H](CO)N4CCCCN(C)C[C@H]34)cc2)cc1 | -39 | 32 | -7 |
| C[C@@H]1CN([C@H](C)CO)C(=O)c2cc(N(C)C)ccc2O[C@@H](C)CCCCO[C@@H]1CN(C)Cc1ccc(C(=O)Nc2ccccc2N)cc1 | -1 | 0.4 | -1 |
| O=C(Nc1cccc(F)c1)N1CCCCN2[C@@H](CO)[C@@H](c3ccc(-c4ccncc4)cc3)[C@@H]2C1 | 8 | -11 | -3 |
| O=C(C[C@H]1C[C@@H]2c3cc(NC(=O)Cc4ccncc4)ccc3O[C@@H]2[C@H](CO)O1)NCc1cccnc1 | -3 | 7.8 | 4 |
| CCCC(=O)Nc1ccc2c(c1)C(=O)N(C)C[C@H](OC)[C@H](C)CN(C)[C@@H](C)CO2 | -3 | 2.4 | -1 |
| O=C(C[C@@H]1CC[C@@H](NS(=O)(=O)c2ccccc2F)[C@H](CO)O1)NCCCN1CCOCC1 | -5 | 6.0 | 1 |
| C[C@H](CO)N1C[C@H](C)[C@@H](CN(C)C(=O)OCc2ccccc2)OCc2cnnn2CCCC1=O | -5 | 0.2 | -5 |
| COc1cccc(-c2ccc3c(c2)O[C@@H](CN(C)C(=O)C2CCOCC2)[C@@H](C)CN([C@@H](C)CO)S3(=O)=O)c1 | -5 | 4.5 | -1 |
| Cc1nn(C)cc1NC(=O)C[C@H]1CC[C@@H]2[C@@H](COc3ccc(NC(=O)c4cccc(F)c4)cc3C(=O)N2C)O1 | -2 | 1.9 | 0 |
| O=C(C[C@@H]1C[C@@H]2c3cc(NC(=O)CC4CC4)ccc3O[C@@H]2[C@@H](CO)O1)NCc1ccccn1 | 7 | 0.1 | 7 |
| CO[C@@H]1CN(C)C(=O)c2cc(NS(=O)(=O)Cc3ccccc3)ccc2OC[C@@H](C)N(Cc2nccs2)C[C@H]1C | -14 | 9.3 | -4 |
| COc1ccc(S(=O)(=O)N(C)C[C@@H]2Oc3ccc(NC(=O)CCN4CCOCC4)cc3CC(=O)N([C@H](C)CO)C[C@@H]2C)cc1 | -1 | 1.9 | 1 |
| C[C@@H]1CN([C@@H](C)CO)C(=O)c2cc(C#C[C@@H](C)O)cnc2O[C@H]1CN(C)C(=O)c1ccccc1F | -1 | 0.2 | -1 |
| COC(=O)C[C@H]1C[C@H]2c3cc(NC(=O)Nc4ccc(C(F)(F)F)cc4)ccc3O[C@H]2[C@H](CO)O1 | nt | nt | ? |
| CCS(=O)(=O)N1CC2(C1)CN(S(=O)(=O)c1ccccc1)[C@H](CO)c1c2c2ccc(OC)cc2n1C | nt | nt | ? |
| O=C(c1ccc(F)cc1)N1CC[C@@H]2[C@H]1c1cc(-c3ccccc3F)ccc1N[C@@H]2CO | 10 | 9.2 | 19 |
| COc1ccc(S(=O)(=O)N[C@@H]2C=C[C@H](CC(=O)NCc3ccccc3F)O[C@@H]2CO)cc1 | 5 | -1.7 | 4 |
| O=C(NC1CCCCC1)[C@H]1[C@H](CO)[C@H]2Cn3c(cccc3=O)[C@@H]1N2Cc1cccnc1 | -1 | 1.0 | 0 |
| CC(C)COC(=O)N(C)C[C@@H]1OCc2cnnn2CCCC(=O)N([C@H](C)CO)C[C@@H]1C | 2 | 2.0 | 4 |
| CNC[C@H]1Oc2c(NS(=O)(=O)c3ccc(Cl)cc3)cccc2C(=O)N([C@H](C)CO)C[C@H]1C | 0 | 1.0 | 1 |
| CO[C@H](CN(C)C(=O)c1ccc2c(c1)OCO2)[C@@H](C)CN([C@H](C)CO)S(=O)(=O)c1ccc(F)cc1 | 1 | -1.1 | 0 |
| C/C=C/c1ccc([C@H]2[C@@H](CO)N(C(C)=O)C23CN(C(=O)c2ccncc2)C3)cc1 | 2 | 4.0 | 5 |
| C[C@H](CO)N1C[C@H](C)[C@H](CN(C)Cc2cccc(C(=O)O)c2)Oc2cc(C3=CCCC3)ccc2S1(=O)=O | -6 | -2.3 | -8 |
| CCCC#Cc1ccc([C@@H]2[C@@H](CO)N3CCCCN(S(=O)(=O)c4ccccc4F)C[C@@H]23)cc1 | -17 | 22 | 5 |
| O=C(C[C@@H]1C[C@H]2c3cc(NC(=O)Cc4ccncc4)ccc3O[C@H]2[C@@H](CO)O1)NCc1ccc(-c2ccccc2)cc1 | -26* | -5.5* | -31* |
| COCCNC(=O)C[C@H]1C[C@@H]2c3cc(NC(=O)NC4CCCC4)ccc3O[C@@H]2[C@H](CO)O1 | 11 | -0.1 | 11 |
| OC[C@H]1[C@@H](c2ccc(C#Cc3ccccc3F)cc2)[C@H]2CN(CC3CCOCC3)CCCCN21 | 5 | -14 | -9 |
| CN(C)C(=O)C[C@@H]1CC[C@@H]2[C@H](COC[C@@H](O)CN2C(=O)c2ccncc2)O1 | 5 | 0.1 | 5 |
| CO[C@H]1CN(C)C(=O)c2ccc(NC(C)=O)cc2OC[C@@H](C)N(C(=O)c2cnccn2)C[C@H]1C | -2 | 2.6 | 0 |
| COc1ccc(S(=O)(=O)N(C)C[C@H]2Oc3ccc(N(C)C)cc3CC(=O)N([C@H](C)CO)C[C@H]2C)cc1 | 5 | -4.0 | 1 |
| COc1cccc(CNC(=O)[C@@H]2[C@@H](CO)[C@@H]3Cn4c(ccc(-c5cccc(OC)c5)c4=O)[C@@H]3N2C)c1 | -3 | -1.5 | -5 |
| CC=Cc1ccc2n(c1=O)C[C@@H]1[C@@H](CO)[C@H](C(=O)NC3CCCC3)N(Cc3nccs3)[C@H]21 (mixture of isomers) | 0 | -3.3 | -3 |
| Cc1ccccc1S(=O)(=O)N1CC[C@@H]2[C@H]1c1cc(-c3ccc(C#N)cc3)ccc1N[C@@H]2CO | 4 | 8.4 | 13 |
| OC[C@H]1[C@H](c2ccc(C#CC3CCCC3)cc2)[C@H]2CN(CCC(F)(F)F)CCCCN21 | -11 | 4.2 | -7 |
| N#C[C@@H]1[C@@H](c2ccc(C#Cc3cccc(F)c3)cc2)[C@H](CO)N1C(=O)C1CCCC1 | -3 | 4.7 | 2 |
| O=C(NC[C@@H]1[C@@H](c2ccccc2)[C@@H](CO)N1C(=O)C1CC1)NC1CCCC1 | -2 | 3.3 | 1 |
| CN(C)CC(=O)Nc1ccc2c(c1)[C@H]1C[C@H](CC(=O)NCCc3ccccc3)O[C@H](CO)[C@H]1O2 | 0 | 2.0 | 2 |
| COCC(=O)N1CCCCN2[C@H](CO)[C@H](c3ccc(-c4cccc(C)c4)cc3)[C@H]2C1 | -13 | 26 | 13 |
| CN(C)C(=O)[C@@H]1[C@@H](CO)[C@@H]2Cn3c(ccc(-c4ccccc4F)c3=O)[C@H]1N2C(=O)c1cccnc1 | -2 | 8.9 | 6 |
| CO[C@H]1CN(C)C(=O)c2cc(NC(=O)c3ccno3)ccc2OC[C@@H](C)NC[C@@H]1C | -6 | 10 | 4 |
| CN1C(=O)c2cc(NC(=O)c3ccc(F)c(F)c3)ccc2OC[C@H]2O[C@H](CC(=O)N[C@H]3CCN(Cc4ccccc4)C3)CC[C@@H]21 | 2 | -0.8 | 1 |
| C[C@H]1CN([C@@H](C)CO)C(=O)CCCn2cc(nn2)CO[C@@H]1CN(C)S(=O)(=O)c1cccs1 | 1 | -4.1 | -3 |
| Cn1cnc(S(=O)(=O)N2CC[C@H]3[C@H](CO)Nc4ccc(-c5ccc(F)cc5)cc4[C@H]32)c1 | 8 | 7.9 | 16 |
| CC(C)(C)[S@@](=O)N1Cc2cc(C(=O)NCCc3ccncc3)nc(-c3cccc(-c4cccnc4)c3)c2[C@H]1CCO | 4 | -1.3 | 2 |
| C[C@@H]1CCCCO[C@@H](CN(C)C(=O)CCC(F)(F)F)[C@H](C)CN([C@@H](C)CO)C(=O)c2cc(NC(=O)C3CCCCC3)ccc2O1 | 2 | -2.0 | 0 |
| COc1ccc(S(=O)(=O)N(C)C[C@H]2OCCCC[C@@H](C)Oc3ccc(NC(=O)Nc4cccc5ccccc45)cc3C(=O)N([C@@H](C)CO)C[C@@H]2C)cc1 | 2 | -0.9 | 1 |
| C[C@@H]1CCCCO[C@H](CN(C)Cc2ccccc2)[C@@H](C)CN([C@H](C)CO)C(=O)c2cc(NC(=O)Nc3ccc(F)cc3)ccc2O1 | 0 | 1.0 | 1 |
| COc1ccc(CN(C)C[C@@H]2OCCCC[C@H](C)Oc3ccc(NS(C)(=O)=O)cc3C(=O)N([C@@H](C)CO)C[C@H]2C)cc1 | 3 | -3.4 | -1 |
| O=C(NCC[C@@H]1CC[C@@H](NS(=O)(=O)c2ccccc2)[C@H](CO)O1)c1ccccc1F | -4 | 7.5 | 3 |
| CN(C)CCCNC(=O)[C@H]1[C@H](CO)[C@H]2Cn3c(ccc(-c4cccnc4)c3=O)[C@@H]1N2C(=O)CC1CC1 | nt | nt | ? |
| CC(C)c1cn(CC[C@H]2CC[C@H](NS(=O)(=O)c3ccc(F)cc3)[C@H](CO)O2)nn1 | 3 | 2.4 | 5 |
| COc1ccccc1CNC(=O)C[C@@H]1C[C@H]2c3cc(N(C)C)ccc3O[C@H]2[C@@H](CO)O1 | 3 | 4.1 | 7 |

Continuation:
| molecule | DUX4 txn inh difference | DUX4 txn inh control | DUX4 txn inh |
| --- | --- | --- | --- |
| COc1ccc2c3c(n(C)c2c1)[C@@H](CO)N(Cc1ccncc1)CC31CN(C(=O)Nc2cccc(F)c2)C1 | -12 | 21 | 9 |
| C[C@H](NC(=O)[C@@H]1[C@@H](CO)[C@@H]2Cn3c(ccc(-c4ccccc4F)c3=O)[C@H]1N2C)c1ccccc1 | -6 | 4.7 | -2 |
| CCS(=O)(=O)Nc1ccc2c(c1)C(=O)N(C)C[C@@H](OC)[C@@H](C)CN(C(=O)c1ccc3c(c1)OCO3)[C@H](C)CO2 | 2 | 3.4 | 5 |
| CN(C)C(=O)c1ccc(-c2ccc([C@@H]3[C@H](CO)N4CCCCN(CC5CC5)C[C@@H]34)cc2)cc1 | 6 | 7.1 | 13 |
| C[C@H]1CN([C@@H](C)CO)C(=O)c2ccccc2-c2ccccc2CO[C@H]1CN(C)C(=O)c1ccccc1 | 8 | 0.5 | 8 |
| O=C(C[C@H]1CC[C@H]2[C@@H](COC[C@H](O)CN2Cc2cccc(C(F)(F)F)c2)O1)NCCc1ccccc1 | -4 | 7.8 | 4 |
| CCS(=O)(=O)Nc1ccc2c(c1)C(=O)N(C)[C@H]1CC[C@H](CC(=O)OC)O[C@@H]1CO2 | -8 | 4.1 | -4 |
| COc1cccc(NC(=O)N[C@H]2CC[C@H](CC(=O)NCc3ccccn3)O[C@@H]2CO)c1 | 0 | 2.9 | 3 |
| C[C@H](CO)N1C[C@H](C)[C@H](CN(C)C(=O)Nc2ccccc2)Oc2ccc(NS(=O)(=O)c3ccc(F)cc3)cc2C1=O | 1 | 2.2 | 3 |
| COc1ccc(S(=O)(=O)Nc2ccc3c(c2)C(=O)N([C@@H](C)CO)C[C@H](C)[C@@H](CN(C)C(=O)Nc2c(C)noc2C)OCCCC[C@H](C)O3)cc1 | 5 | -1.6 | 3 |
| CCNC(=O)C[C@@H]1CC[C@@H]2[C@H](COC[C@H](O)CN2Cc2ccncc2)O1 | 6 | 3.1 | 9 |

Screens from PubChem.
